# High-throughput results from PubChem BioAssay.
# TSHR ag – qHTS Assay for Agonists of the Thyroid Stimulating Hormone Receptor; Thyrotropin receptor (Homo sapiens), P16473; HEK293-CNG-TSHR cells (CNG channel as cAMP sensor), membrane potential dye, cAMP; Potency, µM (series often up to 57.1 µM), without a hit: at the highest dose activation, usual class: activators; actives 0.48% (n = 73,000); AID 926, 2007; active = well fitted activation curve of enough size with the parental cells flat; inconclusive = any curve in the parental cells; inactive = parental cells flat and receptor cells flat or falling; note: potency is the fitted concentration of half-maximal effect; % of control where 0% means no effect; weak receptor curves with flat parental cells got no call and are not listed
# Target sequence (P16473 whole entry, looked up): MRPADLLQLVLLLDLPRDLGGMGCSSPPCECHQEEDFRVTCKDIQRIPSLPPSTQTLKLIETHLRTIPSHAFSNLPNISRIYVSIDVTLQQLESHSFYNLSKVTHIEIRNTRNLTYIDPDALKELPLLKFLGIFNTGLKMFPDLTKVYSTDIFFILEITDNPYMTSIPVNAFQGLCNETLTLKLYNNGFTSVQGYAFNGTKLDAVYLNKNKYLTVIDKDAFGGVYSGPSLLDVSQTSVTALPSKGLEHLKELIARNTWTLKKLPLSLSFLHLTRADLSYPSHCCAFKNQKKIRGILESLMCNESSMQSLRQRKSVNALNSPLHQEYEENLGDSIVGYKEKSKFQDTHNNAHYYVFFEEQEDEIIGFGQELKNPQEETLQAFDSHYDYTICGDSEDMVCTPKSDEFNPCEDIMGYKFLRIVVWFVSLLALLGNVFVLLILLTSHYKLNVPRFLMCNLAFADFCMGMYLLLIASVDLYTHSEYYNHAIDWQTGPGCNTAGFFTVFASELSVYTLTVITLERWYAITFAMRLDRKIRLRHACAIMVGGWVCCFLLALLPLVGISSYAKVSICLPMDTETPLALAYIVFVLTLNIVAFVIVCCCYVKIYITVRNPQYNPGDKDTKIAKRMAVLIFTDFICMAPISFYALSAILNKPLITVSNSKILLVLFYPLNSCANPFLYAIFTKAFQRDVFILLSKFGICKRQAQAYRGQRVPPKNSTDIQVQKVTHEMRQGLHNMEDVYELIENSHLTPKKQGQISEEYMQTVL
#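 HEK 293 cells stably expressing TSHR and a modified CNG channel, with CNG-only parental cells as counterscreen, were preloaded 60 min at room temperature with membrane potential dye containing 100 uM RO 20-1724. Compound exposure was 30 min, and depolarization was read as fluorescence at 590 nm.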
# Resorufin autofl – qHTS Assay for Spectroscopic Profiling in Resorufin Spectral Region | Compound fluorescence, resorufin region 547/598 nm, buffer; active compounds read high | max dye-equivalent concentration, M | actives 0.04% (n = 59,000); active = above 10 nM dye equivalent; inconclusive = 1 to 10 nM; inactive = 1 nM or less; a few of its hits are not listed in these tables; note: highest value over a series up to 38 µM
#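 Intrinsic fluorescence profiled in the resorufin window (ex 547 nm, em 598 nm) after 15 min at room temperature in pH 8.0 Tris buffer (100 mM); responses normalized against a six-point resorufin standard series as dye-equivalent concentration.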
# AID923 – qHTS Assay for Allosteric/Competitive Inhibitors of Caspase-1: Spectroscopic Profiling in AFC Spectral Region; Potency, µM (series often up to 57.5 µM), inactives show top-dose fluorescence increase, most hits filed as activators; actives 1.1% (n = 75,000); compound fluorescence, AFC spectral region (405/520 nm); almost no hit is shown here; active = well fitted activation curve with a large enough effect; inconclusive = small, poorly fitted or top-dose-only effect;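 note: potency is the fitted concentration of half-maximal effect; 0% is about no effect; scaled to a free AFC standard on each plate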
#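 Baseline compound fluorescence (AFC region, 405 nm ex/520 nm em) taken from the intercept of kinetic reads with 50 nM caspase-1 and 5 uM Ac-WEHD-AFC; normalized to an on-plate AFC standard curve; compounds titrated up to 57 uM.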
# A647 autofl – qHTS Assay for Spectroscopic Profiling in A647 Spectral Region; max dye-equivalent concentration, M; 59,000 tested, under 10 active; Compound fluorescence, A647 channel (570/671 nm), Tris buffer; active means above 1 µM dye equivalent; inconclusive means 0.1 to 1 µM; inactive means 0.1 µM or less;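 note: values scaled relative to a standard on each plate; highest value over a series up to 38 µM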
#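 Buffer was dispensed, compounds and Alexa 647 standards were pin-transferred, and plates sat 15 min at room temperature. Intensity at 570/671 nm was then converted to dye-equivalent concentration using the plate's A647 standard curve.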
# A488 autofl – qHTS Assay for Spectroscopic Profiling in A488 Spectral Region; compound autofluorescence, A488 spectral region, dye equivalency; active compounds read high; max dye equivalency, M; actives 0.1% (n = 59,000); AID 591, 2007; active = above 10 nM dye equivalent; inconclusive = 1 to 10 nM; inactive = 1 nM or less; about half of its hits are not listed in these tables;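 note: highest value over a series up to 38 µM; compound alone in buffer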
#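 Autofluorescence read at ex 480/em 540 nm after 15 min RT in 100 mM Tris pH 8.0; compound signal normalized to A488 standard series on each plate, reported as dye-equivalent concentration at each test concentration.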
# Starred values were filed as active, the others as inactive; i = inactive; ? = inconclusive; nt = not tested or not shown; [ ] = remark or other dose. A portion of the library, so the mix of outcomes need not match the whole.
SMILES,TSHR ag,Resorufin autofl,AID923,A647 autofl,A488 autofl
C=CCC(O)CC1C2C(CC(O)CC=C)C3C1C3C2OC(C)(C)C (stereo not given),?,nt,-2.5%[11.5 µM],nt,nt
COCC(=O)Nc1cccc2ccccc12,3.1%,i,-3.3%,1.87e-08,i
Cc1ccc(NC(=O)N2CCC(C(=O)NCc3ccc(F)cc3)CC2)cc1,-12.7%,i,-0.2%,4.5e-09,i
O=C(O)c1cccc(C(=O)Cc2ccccc2)c1,3.9%,nt,-1.3%,nt,nt
CCN(CC(=O)Nc1ccc2c(c1)OCO2)Cc1nc2ccccc2c(=O)[nH]1,22.7%,i,-1.1%,6.6e-09,i
COc1ccc(/C(O)=C2/C(=O)C(=O)N(CCN3CCOCC3)C2c2ccccn2)cc1OC (stereo not given),nt,i,nt,1e-09,i
Cc1nc2cccc([N+](=O)[O-])c2n1CCCN(C)C,2.6%[11.4 µM],i,3.0%[11.5 µM],8.5e-09,i
O=C(Nc1ccc(Nc2ccccc2)cc1)N1CCOCC1,-1.0%,i,0.8%,2e-09,i
Cc1nc2cnc(N3CCN(C)CC3)nc2n(Cc2ccc(F)cc2)c1=O,4.6%,i,4.6%,7e-09,i
CC1(c2ccc(OC(F)F)cc2)NC(=O)N(CC(=O)NC2CCCCC2)C1=O (stereo not given),-4.6%,i,-1.1%,2.3e-09,i
COc1ccc(N(CC(=O)N2CCc3ccccc3C2)S(=O)(=O)c2c(C)nn(C)c2C)cc1,-1.9%,nt,-2.2%,nt,nt
COC(=O)C1C2C=CC3(CN(C(C)c4ccc(OC)cc4)C(=O)C13)O2 (stereo not given),1.6%,i,0.4%,2.18e-08,i
N#CCCN(CC(=O)O)S(=O)(=O)c1ccccc1,-11.4%,nt,-0.6%,nt,nt
COc1cccc(N2CCN(c3ncnc4c3[nH]c3ccccc34)CC2C)c1 (stereo not given),nt,i,nt,2.98e-08,i
Cc1ccc(CNC(=O)CNS(=O)(=O)c2cccc3nsnc23)cc1,-3.0%,i,0.1%,1e-09,i
Cc1cc(NC(=O)c2ccco2)ncc1NC(=O)Cc1ccccc1,1.3%,i,0.3%,1.73e-08,i
CN(C1CCCCC1)S(=O)(=O)c1ccc(C(=O)O)cc1,7.6%,i,0.2%,1e-09,i
CCN(CC)CCNC(=O)CCc1n[nH]c(=O)c2ccccc12,1.1%,nt,1.2%,nt,nt
CCNS(=O)(=O)c1ccc2nc(NC(=O)c3cccnc3)sc2c1,-0.9%,i,-1.6%,1.8e-08,i
O=C(c1cccnc1Nc1ccc2c(c1)CCC2)N1CCOCC1,2.7%,i,-2.7%,3.1e-09,i
CC1(C)CSC(=S)N1S(=O)(=O)c1ccccc1,16.2%,i,0.1%,3.64e-08,i
CCOc1ccc(C2N(c3cc(Cl)ccc3OC)C(=O)C3CCCN32)cc1OC (stereo not given),1.8%,nt,2.9%,nt,nt
CCc1ccccc1NC1=NCC(=O)N1Cc1ccc(OC)cc1,7.94µM*,i,-1.5%,1e-09,i
COCC(=O)Nc1nc2n(n1)C(c1ccc(Cl)cc1)CC(c1ccc(OC)cc1)N2 (stereo not given),26.1%,i,6.7%,6.2e-09,i
C[C@]12CC[C@@H]3c4ccc(OS(=O)(=O)O)cc4CC[C@H]3[C@@H]1CCC2=O,nt,i,nt,1.4e-09,i
N#Cc1cccc(-c2nccc(NCc3cccnc3)n2)c1,4.5%,i,-0.1%,3.76e-08,i
C=CCNCc1cccn1-c1ccccc1,5.7%,i,1.6%,1e-09,i
c1c2c(cc3sc(N4CCOCC4)nc13)OCCO2,28.9%,i,-3.1%,3.54e-08,i
COc1ccc(-n2c(Cc3cccn3C)nnc2SCC(=O)Nc2nccs2)cc1,-1.8%,nt,-3.9%,nt,nt
c1ccc(Cn2nnc3c(NCc4ccc5c(c4)OCO5)nc(C4CC4)nc32)cc1,1.9%,i,0.5%,1e-09,i
COc1ccc(Cl)cc1N1C(=O)C2CCCN2C1c1cccc(F)c1 (stereo not given),10.9%,nt,-0.9%,nt,nt
COC(=O)N1CC=CC1(C)C(=O)NCc1ccc(C)o1 (stereo not given),1.9%,nt,3.8%,nt,nt
Cc1ccc(S(=O)(=O)N(C)CCCC(=O)Nc2ccccn2)cc1,-10.1%,i,0.4%,2.48e-08,i
Nc1nnc(CCN2C(=O)CSC2=O)s1,-2.6%[11.4 µM],i,-0.6%,1e-09,i
COc1ccc(C(=O)c2oc3ccccc3c2N)cc1,-0.4%,i,1.4%,3.5e-09,i
Cc1nc(Nc2ccncc2)c2oc3ccccc3c2n1,-3.2%,i,0.8%,2.61e-08,i
COc1ccc(-c2nc3cnc(OC)nc3n(C[C@H]3CCCO3)c2=O)cc1,?,i,9.2%,1.47e-08,i
COc1ccc(C)cc1NC(=O)CSc1nc(SC)ns1,20.3%,i,1.3%,1.15e-08,i
COCc1cc(=O)[nH]c(SCC(=O)Nc2ccccc2)n1,?,i,-1.1%,1e-09,i
COc1ccc(C(C#N)(CCC#N)CCC#N)cc1OC,3.1%,nt,16.4%,nt,nt
O=C(NCC1CCCO1)c1csc2c1CCCC2 (stereo not given),1.2%[11.4 µM],i,-0.1%,1.3e-08,i
O=C(CCc1nc2ccccc2c(=O)[nH]1)N1CCN(C/C=C/c2ccccc2)CC1,?,i,1.3%,3.9e-09,i
Cc1ccc(NC(=O)c2ccc3ccccc3n2)nc1,17.7%,i,-0.9%,4.34e-08,i
Cn1c(=O)c2c(nc(NCc3ccccc3)n2Cc2ccc(F)cc2)n(C)c1=O,14.0%,nt,6.2%,nt,nt
O=C(Nc1ccccc1)c1ccc2nc(-c3ccco3)c(-c3ccco3)nc2c1,-7.1%,i,17.5%,1.22e-08,i

# An excerpt of these results, with values under each structure.
# Values run as follows: TSHR ag	Resorufin autofl	AID923	A647 autofl	A488 autofl
COc1ccc(Cl)cc1N1C(=O)C2CCCN2C1c1cccc(F)c1 (stereo not given)
    10.9%	nt	-0.9%	nt	nt
COC(=O)N1CC=CC1(C)C(=O)NCc1ccc(C)o1 (stereo not given)
    1.9%	nt	3.8%	nt	nt
Cc1ccc(S(=O)(=O)N(C)CCCC(=O)Nc2ccccn2)cc1
    -10.1%	i	0.4%	2.48e-08	i
Nc1nnc(CCN2C(=O)CSC2=O)s1
    -2.6%[11.4 µM]	i	-0.6%	1e-09	i
COc1ccc(C(=O)c2oc3ccccc3c2N)cc1
    -0.4%	i	1.4%	3.5e-09	i
Cc1nc(Nc2ccncc2)c2oc3ccccc3c2n1
    -3.2%	i	0.8%	2.61e-08	i

# New compounds follow:
SMILES,TSHR ag,Resorufin autofl,AID923,A647 autofl,A488 autofl
COc1ccc(-c2nc(CS(=O)CC(=O)NCc3ccccn3)c(C)o2)cc1 (stereo not given),-6.8%,nt,-1.2%,nt,nt
CCOC(=O)C1CCCN(c2c(NCCCN(CC)c3cccc(C)c3)c(=O)c2=O)C1 (stereo not given),13.5%,i,-1.2%,1e-09,i
O=C(OCC(O)CN1CCCCC1)C12CC3CC(CC(C3)C1)C2 (stereo not given),-7.5%,i,0.3%,1.18e-08,i
O=C(COc1ccc2c(c1)OCO2)NC12CC3CC(CC(C3)C1)C2,nt,i,-1.1%,7.8e-09,i
COC(=O)NCCOC(=O)N(O)c1ccc(Br)cc1,0.4%,i,0.8%,3.6e-09,i
COc1ccccc1N1CCN(c2cc(=O)n(-c3ccc(Cl)cc3)c(=O)[nH]2)CC1,3.9%,nt,1.2%,nt,nt
Cc1nc2ccc(NC(=O)N3CCCCC3)cc2s1,8.1%,i,-1.7%,3.9e-09,i
O=C(Nc1c(C(=O)N2CCOCC2)cnn1-c1ccccc1)c1ccco1,-3.2%,i,1.0%,1e-09,i
Cc1cc(C)cc(N(CC(=O)NC2CCCCC2)C(=O)CCC(=O)Nc2cc(C)ccn2)c1,?,i,-1.8%,9.6e-09,i
O=C(CCNC(=O)Cn1ccc2ccccc2c1=O)NCCN1CCN(c2ccccc2F)CC1,10.3%[11.4 µM],i,-2.5%,2.62e-08,i
O=C(NCc1cccs1)c1cccnc1C(=O)O,-1.3%,i,1.8%,1.7e-08,i
NC(=O)CN1C(=O)C2CCCCN2C(=O)c2ccccc21 (stereo not given),4.2%,i,-0.1%,1.4e-09,i
Cc1ccc(C(=O)NCc2ccc(Cl)cc2)o1,8.1%,i,-0.4%,1e-09,i
Cc1ccccc1NC(=O)CN1C(=O)COc2ccc(Cl)cc21,59.5%,nt,0.5%,nt,nt
O=C(CSc1nnnn1-c1ccccc1)CSc1nnnn1-c1ccccc1,22.7%,nt,0.2%,nt,nt
COc1ccccc1CNc1nc(-c2cccc(NS(C)(=O)=O)c2)nc2ccccc12,?,i,4.2%,1e-09,i
CCOc1ccc(/C(O)=C2/C(=O)C(=O)N(CCN(CC)CC)C2c2ccco2)cc1 (stereo not given),nt,i,nt,1.68e-08,i
CCCCN1C(=O)C(O)(CC(=O)c2ccccc2OC)c2ccccc21 (stereo not given),6.4%,nt,0.6%,nt,nt
COc1cccc(CC(=O)Nn2c(C)nc3ccccc3c2=O)c1,2.4%,i,1.6%,1e-09,i
CSc1ccc(S(=O)(=O)NCc2ccccc2Cl)cc1,51.3%,i,-2.8%,2.88e-08,i
CCc1nnc(NC(=O)c2cc3c(s2)CCCCC3)s1,-3.8%[11.4 µM],i,0.0%,3.44e-08,i
CC(C)OC(=O)c1cc(=O)[nH]c2ccccc12,4.1%,i,-0.5%,1e-09,i
Cc1ccc(NC(=O)N2CCC(C(=O)NCCC3=CCCCC3)CC2)cc1,-2.0%,i,-0.7%,1e-09,i
Cc1onc(-c2ccccc2Cl)c1C(=O)Nc1cccnc1,-2.3%,i,0.9%,4.3e-09,i
COc1cccc(-c2nc(N3CCN(Cc4ccccc4)CC3)c3ccccc3n2)c1O,nt,i,nt,2.43e-08,i
Cc1cc(C)cc(N(CC(=O)NCC2CCCO2)C(=O)CN2C(=O)COc3ccccc32)c1 (stereo not given),4.4%,i,-3.9%,6.3e-09,i
COc1ncc2nc(-c3ccc(Cl)cc3)c(=O)n(Cc3cccs3)c2n1,6.4%,i,17.6%,2.7e-09,i
Cc1ccc(NC(=O)CS(=O)CC(=O)NCC2OCCc3ccccc32)c(C)c1 (stereo not given),5.8%,i,-1.1%,1e-09,i
CCN(CC)C(=O)c1sc2nc(-c3cccs3)cc(-c3cccs3)c2c1N,nt,i,nt,1e-09,i
O=C(Nc1ccc(C(=O)Oc2ccccc2)c(O)c1)c1ccco1,-1.7%,i,-0.9%,2.5e-09,i
O=C1c2ccccc2-c2cc([N+](=O)[O-])c([N+](=O)[O-])cc21,-32.0%[11.4 µM],i,0.0%[11.5 µM],2.3e-09,i
CCN(CC)CCN1C(=O)C(=O)/C(=C(/O)c2cccc(OC)c2)C1c1ccccn1 (stereo not given),-15.9%,i,3.8%,1e-09,i
CCS(=O)(=O)N1CCc2cc(OC)c(OC)cc2C1,25.5%,i,1.8%,1e-09,i
c1ccc(CNc2ncnc3ccccc23)cc1,?,i,-1.0%,3.34e-08,i
CCN(CC)c1ccc(NC(=O)CN2C(=O)CSc3ncccc32)c(C)c1,11.1%,nt,1.8%,nt,nt
O=C(NC1CCCC1)C(c1cccnc1)N(C(=O)c1csnn1)C1CC1 (stereo not given),1.2%,i,-0.1%,1e-09,i
Cc1nn(-c2ccccn2)c(C)c1Oc1ccccc1O,2.0%,i,-1.0%,1.52e-08,i
